Screening data as filed in PubChem.
UCH37 inh: inhibitors of human UCH37 deubiquitinase, primary screen, biochemical, Ub-AMC cleavage, fluorescence; Ubiquitin carboxyl-terminal hydrolase isozyme L5 (Homo sapiens), Q9Y5K5; purified proteasome/UCH37; inhibition, % (no concentration beside the values); actives 0.33% (n = 330,000); AID 588478, 2011;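 active means mean of two replicates above 20%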;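 further: 0% = compound-free wells with enzyme and 100% = wells lacking proteasome; stock transfer was 100 nL into about 20 µL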
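System: Proteasome-associated human UCH37 deubiquitinase; Input: 0.15 nM proteasome in added enzyme buffer; Also added: Ub-AMC substrate from 1 µM stock; Incubation: 30 min compound-proteasome preincubation then 25 min substrate reaction, room temperature; Detection: fluorescence, ex 355 nm, em 460 nm; Read-out: % inhibition of Ub-AMC cleavage fluorescence; Benchmarks: no-proteasome and no-compound wells.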
Beta cell apopt: inhibitors of cytokine-induced beta cell apoptosis, primary screen, luminescence; INS-1E cytokine-induced death, ATP luminescence, 48 h; percent of positive-control rescue, neutral wells zero; protection from apoptosis, % (concentration not given with the values); actives 0.8% (n = 300,000); AID 435005, 2010;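 active means all replicates at 75% or more, or half of them and the mean; inconclusive means half reach 75% but not the mean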;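 further: 0% = cytokine-treated negative control wells and 100% = positive control rescue; higher means more ATP so stronger rescue from cytokine killing; wells of about 40 µL received 100 nL stock; the first replicate is given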
A1 inh: caspase 3/7 activation in MEF A1-2A-BIM cells, primary screen, A1 inhibitor project, cell-based, luminescence, HTS; caspase activation, % (test concentration not listed); actives 0.066% (n = 330,000); Caspase-Glo 3/7 luminescence, 3 h; percent of clofoctol response, vehicle zero; AID 2462, 2010;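 active means over half of replicate activation scores above 10%, or exactly half above 10 with the replicate mean above 10; inconclusive means replicate mean below 10 yet half the replicates above 10; inactive means over half of replicates below 10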;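 further: wells of about 30 µL received 50 nL stock; many hits fall short of the cut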
LANA-H2A inh: blockers of LANA interaction with H2A/H2B – biochemical, FP readout, HTS, primary screen; Protein LANA1 (Human herpesvirus 8 type P (isolate GK18)), Q9QR71; cell-free LANA-H2A/H2B peptide, fluorescence polarization; inhibition, % (no concentration beside the values); actives 0.6% (n = 320,000); in the data active means inhibition mostly above about 10%, no sharp cut-off; inactive means mostly below about 6.7%;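 further: stock transfer was 7.5 nL into about 10 µL; 0% = median of vehicle wells and 100% = median of positive control wells; one replicate is shown; the record names a cut of 25% in any replicate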
Target sequence (Q9QR71 whole entry, looked up): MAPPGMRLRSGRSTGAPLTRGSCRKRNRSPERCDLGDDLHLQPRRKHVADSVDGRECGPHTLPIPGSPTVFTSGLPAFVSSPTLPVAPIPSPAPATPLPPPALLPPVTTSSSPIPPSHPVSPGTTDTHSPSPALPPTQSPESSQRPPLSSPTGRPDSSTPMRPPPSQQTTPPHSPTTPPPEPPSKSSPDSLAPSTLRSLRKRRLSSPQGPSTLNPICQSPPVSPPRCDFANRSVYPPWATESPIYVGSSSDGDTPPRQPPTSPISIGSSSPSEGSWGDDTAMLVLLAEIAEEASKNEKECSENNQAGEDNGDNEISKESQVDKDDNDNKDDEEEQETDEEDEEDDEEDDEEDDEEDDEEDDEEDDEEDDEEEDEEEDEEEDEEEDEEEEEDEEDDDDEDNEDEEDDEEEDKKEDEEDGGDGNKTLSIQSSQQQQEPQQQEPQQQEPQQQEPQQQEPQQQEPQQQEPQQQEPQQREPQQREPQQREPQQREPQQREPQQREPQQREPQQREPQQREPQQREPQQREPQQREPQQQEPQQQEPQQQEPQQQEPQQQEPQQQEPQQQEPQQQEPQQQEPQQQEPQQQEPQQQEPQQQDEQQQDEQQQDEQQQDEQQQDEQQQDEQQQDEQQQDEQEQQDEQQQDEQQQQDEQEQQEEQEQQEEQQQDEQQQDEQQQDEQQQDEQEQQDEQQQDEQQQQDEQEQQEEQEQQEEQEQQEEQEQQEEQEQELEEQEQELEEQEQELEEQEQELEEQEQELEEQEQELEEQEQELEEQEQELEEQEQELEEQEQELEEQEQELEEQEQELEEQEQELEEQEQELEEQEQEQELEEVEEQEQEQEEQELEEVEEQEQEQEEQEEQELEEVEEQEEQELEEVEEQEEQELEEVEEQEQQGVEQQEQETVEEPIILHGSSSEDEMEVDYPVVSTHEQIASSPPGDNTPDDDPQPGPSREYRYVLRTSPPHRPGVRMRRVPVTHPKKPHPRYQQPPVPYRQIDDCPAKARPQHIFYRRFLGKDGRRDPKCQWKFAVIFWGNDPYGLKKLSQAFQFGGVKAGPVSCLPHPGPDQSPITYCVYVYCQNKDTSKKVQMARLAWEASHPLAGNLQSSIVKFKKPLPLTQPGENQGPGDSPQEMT
B2AR ag: beta2AR agonists driving receptor internalization, primary screen, cell-based, FAP fluorogen, flow cytometry; Beta-2 adrenergic receptor (Homo sapiens), P07550; Am2.2-beta2AR cells; reference of the scale not given here; response, % (test concentration not listed); actives 0.43% (n = 340,000); AID 504454, 2011;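 active means response above a set limit, near 3 SD of response in nonfluorescent compounds, cut at about 42% in these data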;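 further: stock transfer was 100 nL into about 11 µL; a reference agonist was the positive control; negative values mostly stem from fluorescent compounds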
T cruzi inh: inhibitors of intracellular T. cruzi growth, primary screen, luminescence, NIH3T3 host cells; T. cruzi beta-gal in NIH3T3, 90 h; inhibition, % (no concentration beside the values); actives 1.4% (n = 300,000); AID 1885, 2009;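 active means mean inhibition across valid replicates above about 55%, limit read from the data; inconclusive means mean below that limit but half or more replicates reach it; inactive means mean below it, under half of replicates reach it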;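 further: signal also drops with host cell toxicity which is not excluded here; 0% = plate median of DMSO wells and 100% = zero luminescence signal; higher percent means less beta-gal luminescence so fewer parasites; stock transfer was 50 nL into about 50 µL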
Calb FLC: C. albicans growth inhibition with fluconazole, primary screen, CaCi-2 strain, Alamar Blue fluorescence | growth inhibition, % (concentration not given with the values) | AID 1979, 2009 | actives 0.57% (n = 300,000) | C. albicans CaCi-2 (fluconazole-resistant clinical isolate) + fluconazole, 48 h;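 active means most replicates above 75%; inconclusive means exactly half above 75%; inactive means most below 75%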;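 further: all wells also contain fluconazole at 8 µg/ml as a sub-toxic cotreatment; 0% = median of DMSO wells and 100% = median of geldanamycin control wells; wells of about 8 µL received 7.5 nL stock; the first replicate is given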
RanGTP-Imp inh: inhibitors of RanGTP-importin-beta interaction, primary screen, biochemical, FRET, CFP-Ran, YFP-importin-beta, homogeneous; Ran GTPase (GTP-bound) - importin-beta complex; cell-free CFP-Ran/YFP-importin-beta FRET ratio; inhibition, % (test concentration not listed); actives 1.1% (n = 300,000);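 active means most replicates above 15%; inconclusive means exactly half above 15%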;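 further: 0% = DMSO wells and 100% = Ran loaded with GDP instead of GTP; wells of about 40 µL received 100 nL stock; the first replicate is given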
Numbers without * were called inactive; ? = inconclusive; / = not tested or not shown; & = joins results of further samples.

SMILES	UCH37 inh	Beta cell apopt	A1 inh	LANA-H2A inh	B2AR ag	T cruzi inh	Calb FLC	RanGTP-Imp inh
CCOc1ccc(C(=O)NCC(=O)NNC(=O)C2COc3ccccc3O2)cc1OCC (stereo unspecified)	-2.5	5	0.0	-1.7	13	0	-5	3.1
Oc1c(/C=N/c2ccccn2)sc2ccccc12	/	4	-14	-0.8	5	-7	3	23*
COc1ccc2oc(C(=O)OC(C)C(=O)N(C)c3ccccc3)c(C)c2c1 (stereo unspecified)	-31	2	0.0	4.1	6	1	-1	6.7
CCOC(=O)N1CCC(NC(=O)CSCc2nc(-c3ccccc3Cl)oc2C)CC1	4.5	6	-0.7	5.4	-8	5	3	3.4
CCC(CC)C(=O)Nc1ccccc1-n1cccc1	3.5	0	1.3	1.4	1	-9	-4	2.6
Cc1ccc(C)c(NC(=S)N(C)CCO)c1	0.8	-6	-0.2	1.5	3	-4	-6	-3.3
COCCNc1cc(N)c([N+](=O)[O-])cc1[N+](=O)[O-]	14	-1	2.3	-1.0	3	-22	-8	-3.6
COc1ccccc1N1CCN(C(=O)CN(C)S(=O)(=O)c2ccc3c(c2)c(=O)n(C)c(=O)n3C)CC1	1.6	5	1.0	1.0	1	9	-1	-6.8
C1CCC(Nc2nc3nonc3nc2N2CCSCC2)C1	6.0	2	0.6	0.5	11	-14	-12	0.8
CCn1c2ccccc2c2cc(NC(=O)c3cccc([N+](=O)[O-])c3C)ccc21	3.0	14	-0.6	-0.9	25	50	-3	1.0
CCOc1ccc(-c2nnn(CC(=O)NCc3ccc(C)cc3)n2)cc1	-0.2	2	-0.1	-2.6	-3	1	-13	6.7
NC(=O)CC[C@@H]1NC(=O)[C@@H]2CCCN2C(=O)c2cc([N+](=O)[O-])cc(I)c2NCCC[C@@H](C(N)=O)NC1=O	2.2	-6	-0.6	-0.9	/	/	/	/
CC(OC(=O)COc1cccc2c1OC(C)(C)C2)C(=O)Nc1ccc(S(N)(=O)=O)cc1 (stereo unspecified)	/	-1	0.4	0.0	10	-3	-4	-2.0
O=C(Cn1cc2c(n1)CCCCC2)NCc1ccccn1	-3.4	-5	-0.7	0.3	-7	0	1	1.7
Cc1ccc(/C=C/C(=O)Nc2cccnc2)o1	5.4	-7	-0.1	0.0	1	0	0	0.0
COc1nc(N/N=C/c2ccc(C)cc2)nc(N2CCCCC2)n1	/	-7	-0.4	-3.9	-9	8	30	0.7
CCCN(CC(=O)Nc1ccccc1C)C(=O)COc1c(C)cccc1C	0.0	-4	0.2	3.9	-4	/	/	/
Cc1sc(-c2ccncc2)nc1OC(=O)c1ccc(F)cc1F	-1.8	1	1.3	1.2	0	-17	5	-17
CCOc1ccccc1NCc1cc(=O)oc2cc(C)ccc12	3.2	6	-0.1	0.7	-1	9	-9	-1.3
S=c1[nH]nc(COc2ccccc2)n1/N=C/C=C/c1ccccc1	/	-1	0.2	-1.5	0	-3	57	-0.4
CNc1nc(NCCOC23CC4CC(CC(C4)C2)C3)nc(OCC(F)(F)F)n1	-1.6	-6	-0.4	-0.5	-14	6	15	2.1
Cc1ccc(NC(=O)CC(=O)c2ccc([N+](=O)[O-])cc2)cc1S(=O)(=O)Nc1cccc(Cl)c1	-3.4	5	0.7	-2.3	5	34	-11	1.2
CCOC(=O)c1cccc(NC(=O)/C=C/c2cccc([N+](=O)[O-])c2)c1	1.9	-2	0.8	-1.0	2	31	-1	?
Oc1ccccc1CNc1nccs1	0.6	-13	0.5	-2.3	-1	-17	-13	1.3
CC1=CC=CC2=NC(=O)CC(C)(C(=O)N(CC(=O)NC3CCCC3)Cc3ccc(Cl)cc3)N12 (stereo unspecified)	-298	0	-0.6	2.1	5	-1	-5	1.1

Of the compounds above, two have fluorine:
SMILES	UCH37 inh	Beta cell apopt	A1 inh	LANA-H2A inh	B2AR ag	T cruzi inh	Calb FLC	RanGTP-Imp inh
Cc1sc(-c2ccncc2)nc1OC(=O)c1ccc(F)cc1F	-1.8	1	1.3	1.2	0	-17	5	-17
CNc1nc(NCCOC23CC4CC(CC(C4)C2)C3)nc(OCC(F)(F)F)n1	-1.6	-6	-0.4	-0.5	-14	6	15	2.1

Among those listed so far, these contain a furan ring, fused or not.
SMILES	UCH37 inh	Beta cell apopt	A1 inh	LANA-H2A inh	B2AR ag	T cruzi inh	Calb FLC	RanGTP-Imp inh
COc1ccc2oc(C(=O)OC(C)C(=O)N(C)c3ccccc3)c(C)c2c1 (stereo unspecified)	-31	2	0.0	4.1	6	1	-1	6.7
Cc1ccc(/C=C/C(=O)Nc2cccnc2)o1	5.4	-7	-0.1	0.0	1	0	0	0.0

Marked active in RanGTP-Imp inh (from the list above):
Molecule	UCH37 inh	A1 inh	LANA-H2A inh	B2AR ag	RanGTP-Imp inh
Oc1c(/C=N/c2ccccn2)sc2ccccc12	/	-14	-0.8	5	23*

The listing picks up with the 3 entries that preceded the break.
SMILES	UCH37 inh	Beta cell apopt	A1 inh	LANA-H2A inh	B2AR ag	T cruzi inh	Calb FLC	RanGTP-Imp inh
CCOC(=O)c1cccc(NC(=O)/C=C/c2cccc([N+](=O)[O-])c2)c1	1.9	-2	0.8	-1.0	2	31	-1	?
Oc1ccccc1CNc1nccs1	0.6	-13	0.5	-2.3	-1	-17	-13	1.3
CC1=CC=CC2=NC(=O)CC(C)(C(=O)N(CC(=O)NC3CCCC3)Cc3ccc(Cl)cc3)N12 (stereo unspecified)	-298	0	-0.6	2.1	5	-1	-5	1.1
Cc1ccc(C(=O)c2c(C)oc3c2C(=O)C(=O)c2ccccc2-3)cc1	42*	124*	-0.1	-3.2	47*	?	29	-0.4
Cc1cc(C)cc(CSc2ccc(S(=O)(=O)N3CCCC3)cn2)c1	3.4	-1	1.6	4.3	-10	/	/	/
O=C(COC(=O)C1CCN(S(=O)(=O)c2cccs2)CC1)NCc1ccc(F)cc1	0.7	-1	0.5	-1.6	2	7	15	-0.9
O=C1CCN(S(=O)(=O)c2ccccc2)C2CCCCC12 (stereo unspecified)	0.7	-5	1.5	4.0	3	-5	-1	2.7
COC(=O)CC1C(=O)NCCN1C(=S)Nc1ccccc1 (stereo unspecified)	2.0	-7	-0.4	3.1	2	-27	-4	5.1
Cc1c(Cl)cccc1NC(=O)C1CCN(S(C)(=O)=O)CC1	5.0	-2	1.2	-2.2	-1	-12	13	6.3
O=C(O)CC(=O)NC12CC3CC(CC(C3)C1)C2	1.6&-4.1	0	0.5&0.6	6.7&-1.5	8&13	-10&-14	-5&3	-5.3&6.8
COc1ccc(OCc2ccc(C(=O)O)cc2)cc1	6.3	-4	-5.6	1.0	-1	-2	0	9.7
COc1ccc(NS(=O)(=O)c2cccc(C(=O)NCC3(N4CCOCC4)CCCCC3)c2)cc1	1.4	4	0.2	-0.7	-4	19	3	1.3
O=[N+]([O-])c1ccc(/C=N/N2CCN(c3ccncc3S(=O)(=O)N3CCCCC3)CC2)cc1	/	2	0.5	-0.2	6	50	6	-4.1
Cc1nc2ccccc2n1/C(=N\S(=O)(=O)c1ccccc1)c1ccccc1	/	-10	0.5	1.2	-6	-6	9	-4.6
O=C(NCc1cccs1)c1cc(-c2ccccc2)nn1CC1CC(c2cccc([N+](=O)[O-])c2)=NO1 (stereo unspecified)	4.2	-2	0.9	5.7	4	25	8	-4.5
Cc1cccc(C(=O)N2CCC(n3nnc4cc(F)ccc43)CC2)c1	0.4	1	-0.6	0.8	-5	16	-5	-3.9
CC1CC(C)CN(C(=O)COC(=O)CCC(=O)c2cccs2)C1 (stereo unspecified)	0.0	-1	-0.1	-0.3	-2	/	/	/
O=C(C1CCN(S(=O)(=O)c2cccc3cccnc23)CC1)N1CCCC1	4.7	/	0.9	4.8	5	7	3	-1.6
COc1ccc(C(=O)NCC(c2ccco2)N(C)C)cc1S(=O)(=O)NCc1ccc(Cl)cc1 (stereo unspecified)	-1.3	1	0.2	1.1	10	/	/	/
CC(=O)c1ccccc1OCc1ccc(S(=O)(=O)Cc2ccccc2)cc1	4.4	/	-1.3	1.6	8	14	4	-2.5
Cc1ccc(NC(=O)COC(=O)c2cccnc2Cl)cc1S(=O)(=O)N1CCCCC1	1.8	-3	1.5	-3.2	1	7	-9	?
COc1ccc(C(=O)C(CCC(CNC(C)(C)C)C(=O)c2ccc(OC)cc2)CNC(C)(C)C)cc1 (stereo unspecified)	-1.0	28	0.7	3.9	54*	21	-26	-1.4
CCn1c(SCC(=O)NC2CCCCC2)nnc1-c1ccco1	0.3	-3	-0.3	1.2	-6	3	0	-1.7
CC(=O)Nc1ccc2c(c1)ncn2-c1ccccc1	0.7	-8	-1.2	-7.4	-5	-6	-17	0.8
CCOc1ccc(S(=O)(=O)NCCOC)cc1C	4.0	-5	0.1	-3.8	0	8	-21	-1.6
Cc1cccc(NC(=O)CSc2nc3ccccc3c(=O)n2C)c1	-1.7	6	-0.1	-1.4	-4	14	4	4.0
CCCCCn1c(=O)[nH]c2cc(C(=O)NCCN(CC)CC)ccc2c1=O	-21	/	0.1	-2.1	-15	-23	-1	-1.0
CCCCn1c(O)c(/C=C/C=C/C=Nc2ccccc2)sc1=S	9.7	/	1.8	-5.9	1	1	7	4.1
CC(=O)Nc1ccc(S(=O)(=O)NC2(C(F)(F)F)NC(=O)N(c3ccccc3F)C2=O)cc1 (stereo unspecified)	4.0	-5	0.2	0.5	-4	-5	10	6.8
